Screening data as filed in PubChem BioAssay.
Tg IFNy HTS = inhibitors of Toxoplasma gondii growth with IFN-gamma; Toxoplasma gondii growth in IFN-gamma-treated host cells; stronger effect = lower value; reference of the scale not given here; activity change, negative = inhibition, %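 (about 20 µM by stock and volumes)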; 69,000 compounds, 3.8% hits;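 active = below -70%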;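 also: host cells are HeLa cells infected with Toxoplasma gondii; parasite growth read as luciferase light; one replicate is shown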
* marks the source's active call; other numbers are inactive results; & = joins results of further samples. Some of the compounds tested, so the mix of outcomes need not match the whole.

cpd	structure	Tg IFNy HTS
1	CC1CC(C)(C)N2C(=O)C(=O)c3cc(OC(=O)c4ccccc4)cc1c32 (stereo not drawn)	-95.9*
2	Cn1cc(-c2nc3c(c(NC4CC4)n2)CN(S(=O)(=O)c2cccc(F)c2)CC3)cn1	-73.9*
3	COc1cc(C)c(-c2cccc(-n3cnnc3)c2)c(C)c1	-23.2
4	Cc1nc2c(C(=O)Nc3cnc4n3CCCC4)cccc2[nH]1	12.6
5	CN1CCCC(CN2c3ccccc3Sc3ccccc32)C1 (stereo not drawn)	16.3&16.4
6	CCOc1ccc(NC(=O)c2c(O)c3ccccc3n(CC)c2=O)cc1	77.3
7	Cc1cc(CN2CC3C[C@@H](O)CN3C[C@@H]2C)c(C)n1-c1ccc2c(c1)OCO2 (stereo partly drawn)	1.8
8	Cc1nc(CN2C[C@@H]3CN(Cc4nccn4C)C[C@@H]3C2)cs1	-7.7
9	Cc1cccc(-c2noc(-c3ccc(N4CCC(N5CCCCC5)CC4)nc3)n2)c1	10.7
10	COc1ccccc1-c1noc(C)c1-c1nn2c(-c3cccs3)nnc2s1	19.6
11	Cc1ncc(C(=O)NCCCc2c(C)n[nH]c2C)c(C)n1	0.1
12	Cc1cc(NC(=O)Cn2ncc3c(N4CCCC4)ncnc32)ccc1Br	-29.5
13	C/C=C/c1ccc([C@@H]2[C@@H](CO)N(C(C)=O)[C@@H]2CN(CC)C(=O)CN(C)C)cc1	-9.4
14	O=C(CC1COCCN1)N1CCCN(C2Cc3ccccc3C2)CC1 (stereo not drawn)	7.8
15	O=C(NCCc1ccccc1)N1CCC2(CC1)Nc1ccccc1-n1cccc12	207.3
16	COC(=O)[C@@H]1[C@H]2C[C@H]3c4[nH]c5ccccc5c4CCN3C[C@@H]2CC[C@@H]1O	11.2&11.7
17	CCc1nnc(SCC(=O)Nc2ccc(N3CCN(S(C)(=O)=O)CC3)cc2)o1	-11.1
18	N#Cc1cccc(S(=O)(=O)N2CCC3(CC2)Nc2ccc(Cl)cc2-n2cccc23)c1	-2.1
19	O=C1NCCOCn2nncc2CC[C@@H]1Cc1cccc(Cl)c1	4.5
20	CCn1ncc(C(=O)NCCSc2nnc(C)s2)c1C	74.3
21	Cc1cc(O)cc(=O)o1	12.9
22	CCCC(=O)Nc1ccc2c(c1)C(=O)N(C)C[C@@H](OC)[C@@H](C)CN(C(=O)c1ccccn1)[C@@H](C)CO2	-20.7
23	OCCN1CCN(CC/C=C2/c3ccccc3Sc3ccc(C(F)(F)F)cc32)CC1	-77.2*
24	COc1ccc(-c2noc(-c3c(O)c4ccc(F)cc4n(C)c3=O)n2)cc1	95.5
25	O=C(O[C@H]1C[N+]2(CCCOc3ccccc3)CCC1CC2)C(O)(c1cccs1)c1cccs1	-1.1
26	CCOC(=O)c1[nH]c(Cc2[nH]c(C(=O)OCC)c(C)c2C)c(C)c1C	61.5
27	O=C1c2nccnc2C(=O)N1c1ccc(S(=O)(=O)N2CCOCC2)cc1	-19.7
28	COc1ccc(CN2C3(CCN(C(=O)NC4CCCC4)C3)c3ccccc3S2(=O)=O)cc1 (stereo not drawn)	-6.6
29	CC(O)c1nc2ccc(-c3cccc4cccnc34)cc2[nH]1 (stereo not drawn)	0.5
30	FC(F)(F)c1sc(-c2nnc(-c3ccc(Cl)cc3Cl)o2)cc1-c1ccccc1	42.3
31	Nc1nonc1C(=O)Nc1ccc(N2CCCC2=O)cc1	136.2
32	COCCNC(=O)C[C@@H]1CC[C@@H]2[C@@H](COc3ccc(NC(=O)Nc4cccc(F)c4)cc3C(=O)N2C)O1	11.7
33	CN(C)C(=O)[C@H]1C[C@@H]2OCC[C@@H]2N(Cc2ccc3ccccc3n2)C1	-14.5
34	Cn1ncc2c1C(COCC1CC1)CN(Cc1ccccn1)C2 (stereo not drawn)	-9.2
35	Cc1ccc(CNC(=O)c2ccc(-c3nc(CN4CCc5ccccc54)c(C)o3)cc2)cc1	72.2
36	Cc1ccnc(-n2c(COCC(=O)O)nc3ccccc32)c1	2.2
37	CCOCC1CN(C(=O)CC2=CCCCC2)Cc2nnn(C)c21 (stereo not drawn)	2.8
38	COc1ccc(-c2nc(C)c(CCNC(=O)c3ccc(C(F)(F)F)cc3)s2)cc1	170.4
39	Cc1ccccc1NC(=O)N1CCC(c2nc(C(=O)N3CCCC3)c(C)o2)CC1	36.6
40	COCCC(=O)c1c2c(NC(C)C)ncnc2n2ccccc12	281.6
41	O=C(CC1CC1)N1CC[C@@H](O)[C@@H]1Cc1ccncc1	11.5
42	CN1CC[C@@H](NC(=O)Nc2ccc(C#N)cc2)C[C@@H]1c1nc2ccccc2[nH]1	11.6
43	C=CCn1c(-c2sc3nc4n(c(=O)c3c2C)CCC4)n[nH]c1=S	1.3
44	CCO[C@H]1CCN(C(=O)Cc2ccsc2)[C@H]1Cc1ccncc1	5.1
45	Cn1c(-n2c(CCN3C(=O)c4ccccc4C3=O)nc3ccccc3c2=O)nc2ccccc21	15.9
46	O=C(COC(=O)c1ccccc1NC(=O)c1ccc(Cl)cc1Cl)c1ccccc1	134.2
47	COCC1(C(=O)NCc2ccc3c(c2)CC(C)(C)O3)CCC1	4.5
48	CCC(=O)N1[C@@H]2Cn3c(ccc(-c4ccccc4F)c3=O)[C@H]1[C@@H](C(=O)NC1CCC1)[C@@H]2CO	1.9
49	NCC[C@@H](O)C(=O)N[C@@H]1C[C@H](N)[C@@H](O[C@H]2O[C@H](CN)[C@@H](O)[C@H](O)[C@H]2O)[C@H](O)[C@H]1O[C@H]1O[C@H](CO)[C@@H](O)[C@H](N)C1O (stereo partly drawn)	-7.1
50	O=C(Cc1cccc(F)c1)N1CCn2c(Cn3cccn3)cnc2C1	-10.1
51	CNC(=O)CCN(C)c1nc(C)cc(C2CCC2)n1	1.8
52	Cc1cc(C)c2cc(C(=O)Nc3ccccc3SCc3cccc(Cl)c3F)[nH]c2c1	33.5
53	CN1CCCC2(CCN(Cc3ccccc3OCC(=O)O)C2)C1=O (stereo not drawn)	28.8
54	O=C(O)c1oc2ccccc2c1CSc1ccccn1	19.9
55	O=c1c(-c2ccccc2)c(O)c2cccc3c4c(n1c23)CCCC4	25.7
56	C=CCN1CCCC12CCCN(C(=O)C1CCCO1)C2 (stereo not drawn)	7.1

Overlap with the part before: two compounds, followed by the next part.
cpd	structure	Tg IFNy HTS
55	O=c1c(-c2ccccc2)c(O)c2cccc3c4c(n1c23)CCCC4	25.7
56	C=CCN1CCCC12CCCN(C(=O)C1CCCO1)C2 (stereo not drawn)	7.1
57	COc1ccccc1NC(=O)N1CC(=O)N2[C@H](C1)[C@@H](c1ccc(C#CC(C)C)cc1)[C@@H]2CO	-31.3
58	Cc1noc(-c2cc(=O)n(CC(=O)Nc3ccc4c(c3)OCO4)c3ccccc23)n1	-18.2
59	CCc1cc(-c2ccc(OC)cc2C)ccc1NC(C)=O	31.0
60	CN1[C@H](C(=O)O)C[C@H](C(=O)NCCc2cnc[nH]2)[C@@H]1c1cccc(Cl)c1	-0.2
61	Cc1ccc(NCCC(=O)c2ccccc2)cc1Cl	43.1
62	c1cc(C2CN(c3ncnc4nc[nH]c34)C2)ccn1	6.9
63	Cc1nc(CN2CCO[C@@H]3CN(CCF)C[C@@H]32)cs1	23.6
64	Cn1c(=O)c(-c2nc(-c3ccc(F)cc3)no2)c(O)c2cc(F)ccc21	67.4
65	COC(=O)c1c(NC2CCCCC2)c2cc(F)ccc2[nH]c1=O	-25.7
66	CC(C)O[C@H]1CN(c2nccc(CCC(F)(F)F)n2)C[C@@H]1O	1.8
67	CCOC(=O)C1CCN(C(=O)c2nn(-c3ccccc3)nc2C)CC1	-4.9
68	CN(C)[C@@H]1C[C@@H](C(=O)O)N(Cc2cnn3cccnc23)C1	-2.3
69	O=S(=O)(NCCc1csc(-c2cccc(F)c2)n1)c1ccc(Br)cc1	-8.8
70	COc1ccc(-c2noc(-c3ccc(N(C)C(C)c4ccon4)nc3)n2)cc1 (stereo not drawn)	-45.9
71	O=C([C@@H]1C[C@H]2CCN(Cc3ccco3)C[C@H]2O1)N1CCCCO1	-1.4
72	COCCN1C(=O)N(C2Cc3ccccc3C2)C(=O)C12CCN(Cc1ccc(-c3ccco3)cc1)CC2	-14.4

Filtered by structure: those above with a furan ring, fused or not
cpd	structure	Tg IFNy HTS
54	O=C(O)c1oc2ccccc2c1CSc1ccccn1	19.9
71	O=C([C@@H]1C[C@H]2CCN(Cc3ccco3)C[C@H]2O1)N1CCCCO1	-1.4
72	COCCN1C(=O)N(C2Cc3ccccc3C2)C(=O)C12CCN(Cc1ccc(-c3ccco3)cc1)CC2	-14.4

The results go on.
cpd	structure	Tg IFNy HTS
73	Cc1ccccc1-c1ncc(CN(C)CC2(CO)CCOCC2)s1	-37.9
74	O=C1SCCc2c1n(Cc1ccccc1)c1ccccc21	23.0
75	COc1ccccc1OC1CN(C(=O)CCC2CCCN(C)C2)C1 (stereo not drawn)	3.5
76	CN(C)CCNC(=O)c1cc(-c2cnc(-c3cccc(F)c3)nc2)cn1C	-95.1*
77	Cc1noc(-c2cc(=O)n(CC(=O)Nc3cccc(C#N)c3)c3ccccc23)n1	44.1
78	Cc1cc2c(cc1NC(=O)Cc1c(C)oc3c1C(=O)CC(C)(C)C3)OCCO2	5.8
79	COc1ccc(CCNc2nc(SCc3ccc(F)cc3)nc3ccccc23)cc1OC	-51.2
80	CCOC(=O)c1cc(NC(=O)c2ccc(F)c(Cl)c2)ccc1Oc1cncc(Cl)c1	-89.6*

The list goes on, starting with the last 2 of the part before.
cpd	structure	Tg IFNy HTS
79	COc1ccc(CCNc2nc(SCc3ccc(F)cc3)nc3ccccc23)cc1OC	-51.2
80	CCOC(=O)c1cc(NC(=O)c2ccc(F)c(Cl)c2)ccc1Oc1cncc(Cl)c1	-89.6*
81	O=C(c1ccccn1)N1CC[C@H]2[C@H](CO)Nc3ccc(C#Cc4cccnc4)cc3[C@H]21	6.1
82	COc1nc(C)c(CC(=O)N(C)Cc2nc3ccc(Cl)cc3[nH]2)c(OC)n1	-22.3
83	COC(=O)C[C@H]1CC[C@H]2[C@@H](COc3ccc(NC(=O)Nc4c(C)noc4C)cc3C(=O)N2C)O1	5.4
84	C[C@H]1CN([C@@H](C)CO)C(=O)c2ccccc2-c2ccccc2CO[C@H]1CN(C)Cc1ccc(Oc2ccccc2)cc1	-64.7
85	Cc1c(S(=O)(=O)NCC(c2cccnc2)c2cn(C)c3ccccc23)cnn1C(F)F (stereo not drawn)	-14.0
86	Cc1nc2ncnn2c(NCc2ccc3c(c2)OCO3)c1Cc1ccccc1	-95.5*
87	COC(=O)Cn1cc(CN2CCN3CCNC(=O)C3C2)c2ccccc21 (stereo not drawn)	-16.7
88	Cc1cccc(CN2CCN(C(=O)c3cn(CCN)nn3)C(C)C2=O)c1 (stereo not drawn)	0.2
89	CC(C(=O)NCc1ccoc1)N(c1ccccc1)S(C)(=O)=O (stereo not drawn)	-4.3
90	CCn1c(SC)nnc1C1CCN(C(=O)Nc2cccc(C(C)=O)c2)CC1	27.8
91	Cc1ccc(CN(CCCn2ccnc2)Cc2cc3c(cc2Cl)OCO3)o1	13.8
92	NC(=O)C1(N2CCCCC2)CCN(C(=O)CCN2CCCCO2)CC1	0.8
93	CC(C)OCCN1CCN(S(=O)(=O)c2ccc3oc(=O)ccc3c2)CC1	12.2
94	COC(=O)c1ccc(NC(=O)C(=O)NCCc2sc(-c3ccc(Cl)cc3)nc2C)cc1	202.4
95	CN1N=C(C(N)=O)CCC1=O	18.4
96	Cc1nc(CC(=O)NCC2(c3ccc(F)cc3)CCOC2)cs1 (stereo not drawn)	4.8
97	COc1cccc2c1OCC(C(=O)N(Cc1nccn1C)C(C)C)C2 (stereo not drawn)	0.3
98	COc1cc2oc3cc(OC)c(OC)c(CC=C(C)C)c3c(=O)c2c(O)c1CC=C(C)C	8.1
99	O=C(c1cn[nH]n1)N1CCN(C/C=C/c2ccccc2)CC1	4.5
100	Cc1cc(-n2cccn2)ccc1CN1CCOCC(CN(C)C)C1 (stereo not drawn)	-8.3
101	CC(C)CN1C(=O)CCc2cc(NS(=O)(=O)c3ccc(F)cc3F)ccc21	-4.2
102	COc1ccc(S(=O)(=O)Nc2ccc3c(c2)OC[C@H](C)NC[C@@H](C)[C@@H](OC)CN(C)C3=O)cc1	17.6
103	O=C(OCCS(=O)(=O)c1ccc(C(F)(F)F)cn1)c1cccc(Cl)c1	54.9
104	CC(C)CN1CCn2cc(C(=O)N3CCN(c4ccc(F)cc4)CC3)nc2C1	5.2
105	Cc1ccccc1-c1nc(CN2CCN(C(=O)Nc3cccc(Cl)c3)CC2)c(C)o1	0.7
106	COc1ccc(C[C@H]2CCn3nncc3COC[C@H](CC(C)C)NC2=O)cc1	-41.2
107	COC(=O)c1ccc(NC(=O)C23CC4CCC2(C)C4(C)CO3)cc1 (stereo not drawn)	64.7
108	CCCc1nn(C(=O)c2ccc(Cl)cc2)cc1C(=O)OCC	62.3
109	Cc1cnccc1CN(C)C(=O)c1cnc(C(C)C)[nH]c1=O	7.9
110	O=C(Nc1ccccc1C(=O)N1CCCCCC1)c1ccccc1Cl	0.5
111	CCCCCCCc1ccc(C(=O)NC(=S)Nc2cc(C)on2)cc1	-91.9*
112	CCN1CCC(n2nccc2NC(=O)c2cc(-c3ccccc3F)no2)CC1	-6.6
113	COc1ccc(-c2nc(N3CCN(c4cccc(C)c4)C(C)C3)c3ccccc3n2)cc1 (stereo not drawn)	12.8
114	c1ccc(CCCN2CCN(C3CCCC3)CC2)cc1	-10.2
115	COCCN1C(=O)CCc2cc(NC(=O)Cc3ccccc3C)ccc21	61.3
116	Cc1cc(CN(Cc2sccc2C)C2CCCC2)n[nH]1	2.5
117	NCC(c1cccc(F)c1)N1CCCCC1 (stereo not drawn)	5.0
118	Cc1cc(C)c2c(=O)n(Cc3nc(-c4ccc(C(C)C)cc4)oc3C)c(=O)n(Cc3ccco3)c2n1	-6.3
119	CC(=O)Nc1ccc(Cl)c(C(=O)NCc2cnc(C)cn2)c1	1.8
